# VDR inh = vitamin D3 receptor (human) inhibition. P11473. VDR-SRC2-3 peptide fluorescence polarization, 2 h. Potency, µM, without a hit: max response, negative = inhibition, most hits filed as inhibitors. 400,000 compounds, 0.93% hits. AID 504847; active = well fitted inhibition curve with a large enough effect; inconclusive = small, poorly fitted or top-dose-only effect, or another doubt; inactive = no such curve, though single readings can be large or run the other way; also: series mostly up to about 120 µM
# Target sequence (P11473 whole entry, looked up): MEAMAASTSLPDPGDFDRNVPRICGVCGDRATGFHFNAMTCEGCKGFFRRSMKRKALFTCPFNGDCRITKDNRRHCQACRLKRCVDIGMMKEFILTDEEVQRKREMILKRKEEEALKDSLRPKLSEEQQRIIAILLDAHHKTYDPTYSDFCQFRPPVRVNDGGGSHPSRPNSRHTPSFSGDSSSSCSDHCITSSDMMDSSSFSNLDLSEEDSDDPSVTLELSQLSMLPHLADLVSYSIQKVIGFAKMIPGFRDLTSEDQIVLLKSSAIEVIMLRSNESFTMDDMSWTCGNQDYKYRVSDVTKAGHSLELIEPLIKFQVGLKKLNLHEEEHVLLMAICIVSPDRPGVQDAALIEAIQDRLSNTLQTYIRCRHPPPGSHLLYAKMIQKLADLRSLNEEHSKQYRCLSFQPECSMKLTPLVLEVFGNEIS
#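 FP read-out; VDR + SRC2-3 coactivator peptide; 23 nl compound by pintool; 2 h RT incubation; reagents held at 4 deg C, protected from light.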
# An asterisk follows results filed as active; ? = inconclusive; & = joins results of further samples; [ ] = dose if it differs, or a comment. % is scaled to controls: 0 for no effect and ±100 for the full control effect; potency is read from the fitted curve at half-maximal effect.
VDR inh	smiles
-13%	COc1ccc2nc3cc(Cl)ccc3c(Nc3cc(C(C)C)c(O)cc3C)c2c1
0%	O=C(NCc1cccnc1)c1ccc(-c2cc(Cl)ccc2Cl)o1
4%	CCc1nnc(SCC(=O)Nc2cc(Cl)c(OC)cc2OC)c2cc3oc(C)cc3n12
-4%	CC(=O)C[C@H](O)CC(=O)[C@@H]1OC(=O)CCCCC/C=C/Cc2ccccc21
20%	COc1ccc(-c2cc(C)no2)cc1S(=O)(=O)N1CCCC(C)C1 (stereo unspecified)
-11%	CCOC(=O)N1CCN(Cc2oc(CO)cc(=O)c2O)CC1
-27%	CC(C)N(C(=O)[C@H]1CC(CC(=O)NCCN2CCOCC2)C(=O)N2CCc3c([nH]c4ccccc34)[C@]12C)C(C)C (stereo partly specified)
-10%	Fc1ccc(NCc2ccccc2-c2nnc(-c3ccccc3Cl)o2)cc1Cl
-4%	CC(=O)CC(=O)NC1CCc2ccccc21 (stereo unspecified)
1%	Cc1cc2cc(CN(CCN3CCOCC3)C(=O)Nc3ccccc3F)c(=O)[nH]c2cc1C
-3%	CC(=O)Nc1ccc(OCC(O)CN2CCN(c3ccc(C)c(Cl)c3)CC2)cc1 (stereo unspecified)
9%	C=C(c1ccccc1Cl)[n+]1ccccc1

# An excerpt from above in order of their number in VDR inh, smallest number first:
Compound | VDR inh
CC(C)N(C(=O)[C@H]1CC(CC(=O)NCCN2CCOCC2)C(=O)N2CCc3c([nH]c4ccccc34)[C@]12C)C(C)C (stereo partly specified) | -27%
CCOC(=O)N1CCN(Cc2oc(CO)cc(=O)c2O)CC1 | -11%
CC(=O)C[C@H](O)CC(=O)[C@@H]1OC(=O)CCCCC/C=C/Cc2ccccc21 | -4%
CC(=O)Nc1ccc(OCC(O)CN2CCN(c3ccc(C)c(Cl)c3)CC2)cc1 (stereo unspecified) | -3%
Cc1cc2cc(CN(CCN3CCOCC3)C(=O)Nc3ccccc3F)c(=O)[nH]c2cc1C | 1%

# Remaining list, next part
VDR inh	smiles
-5%	CC1=Nc2cc(C(=O)NC3CCC(C)CC3)ccc2Sc2c(C)ccc(C)c21 (stereo unspecified)
-12%	CN(C)S(=O)(=O)c1cccc(NC(=O)c2sccc2-c2ccccc2)c1
14%	CCC(=O)Nc1ccc(C(=O)NNC(=O)C2CCCCC2)cc1
-15%	CCN(CC)C(=S)SCC(=O)c1ccc(Br)cc1
5%	O=S(=O)(c1ccccc1)N1CCC[C@@]2(CCN(c3ncccn3)C2)C1
?	Cc1nc(SCc2ccc(O)c([N+](=O)[O-])c2)c([N+](=O)[O-])[nH]1
-15%	O=C(NC(=S)NC1CCCCCCCCCCC1)c1cccnc1
-3%	O=c1oc(CCCO)cc2ccc(/C=C/c3cccc([N+](=O)[O-])c3)cc12
-21%	O=C(COC(=O)c1ccc([N+](=O)[O-])cc1)NC12CC3CC(CC(C3)C1)C2
11%	O=C(Cn1cc(SCc2ccc(Cl)cc2)c2ccccc21)N1CCCC1
7%	Cc1oc2ccc(O)c(CN3CCOCC3)c2c1C(=O)Nc1cccc(C(F)(F)F)c1
11%	COc1ccc(C2=C(C)C(N3CCC(C(=O)NCc4ccc(C)o4)CC3)=NS2(=O)=O)cc1

VDR inh	smiles
-6%	O=C(O)CSCNC(=O)CC12CC3CC(CC(C3)C1)C2
9%	Cc1ccc(NC(=O)Cn2c(=O)n(CCCCC(=O)NCc3ccccc3Cl)c(=O)c3ccccc32)cc1
-4%	CN(C)c1ccc(C(CNC(=O)COc2ccc(Cl)cc2)N2CCCC2)cc1 (stereo unspecified)
-17%	COc1cc2c(cc1OC)C(C)N(C(=O)Nc1ccc(F)cc1)CC2 (stereo unspecified)
5%	COc1ccc([C@H]2CC(=O)C=C(c3cccc(Cl)c3)C2)cc1OC
1%	COC(=O)[C@H](CCSC)NC(=O)Cn1cnc2c(OCc3ccccc3)ncnc21
-18%	Cc1nc2ccc(-c3nc4cc(N)ccc4o3)cc2[nH]1
11%	CCOC(=O)N1CCC(NC(=O)c2cc(C(=O)NCc3cccc(Cl)c3)ccc2CO)CC1
-1%	CC(C)C[C@H](NC(=O)OC(C)(C)C)C(=O)NCC1CCC(C(=O)N[C@@H](Cc2ccccc2)C(=O)O)CC1 (stereo partly specified)
7%	CCn1c(SCC(=O)Nc2cc(C)on2)nc2c1c(=O)n(C)c(=O)n2C
-3%	COC(=O)C1=C(C(=O)OC)[C@@H]2N(C)c3ccccc3[C@@]23C[C@@H](C(=O)OC)N(C(C)=O)C3=N1
-14%	Cc1cc(/C=N/NC(=O)C(O)(c2ccccc2)c2ccccc2)c(C)n1-c1ccc(C(=O)O)cc1

VDR inh	smiles
-21%	O=C(CN1C(=O)NC(Cc2c[nH]c3ccccc23)C1=O)NCCc1ccc(F)cc1 (stereo unspecified)
4%	COc1ccc(OC)c(C(=O)NC(CC(N)=O)c2ccc(N3CCN(c4ccccn4)CC3)c([N+](=O)[O-])c2)c1 (stereo unspecified)
3%	COc1ccc([N+](=O)[O-])cc1NCc1ccccc1
12%	Cc1nn(C(C)(C)C)c(C)c1/C=N/OC(=O)Nc1ccc(Cl)c(Cl)c1
16%	CCCC(C)C(=O)Nc1ccc(S(=O)(=O)Nc2nccc(C)n2)cc1 (stereo unspecified)
-9%	O=C(NCc1ccc2c(c1)OCO2)c1cc(-c2ccccc2)on1
7%	CCCc1nnc(NC(=O)CCC(=O)NC2CCCCCC2)s1
-14%	CC(C)(C)NC(=O)C1CCN(C(=O)c2ccc(Br)cc2)CC1
13%	COc1ccc(NC(=O)c2ccc(N3CCOCC3)nc2)cc1
0%	COc1ccc(Oc2ncc3nc(-c4ccc(OC)cc4)c(=O)n(CCC#N)c3n2)cc1
-22%	COc1cccc(-c2nn(-c3ccc(F)cc3)cc2C(=O)NCC2CCCO2)c1 (stereo unspecified)
-11%	NNC(=O)c1cc2nc(-c3cccs3)cc(C(F)(F)F)n2n1

# Reprinted at random: 2 compounds from above, in no set order.
VDR inh	smiles
-3%	CC(=O)Nc1ccc(OCC(O)CN2CCN(c3ccc(C)c(Cl)c3)CC2)cc1 (stereo unspecified)
11%	O=C(Cn1cc(SCc2ccc(Cl)cc2)c2ccccc21)N1CCCC1

# The list continues.
VDR inh	smiles
-2%	CN(Cc1ccccc1)C(=O)COC(=O)c1cncc(Br)c1
-10%	COc1cccc(CNc2ccc3[nH]c(=O)[nH]c3c2)c1OCc1ccccc1Cl
-8%	Cc1cccc(C)c1OCc1cc(C(=O)N2CCN(c3ccccn3)CC2)no1
5%	COc1ccc(CC(=O)N2CCC(n3nccc3NC(=O)C3CC3)CC2)cc1
0%	O=C(NCc1cccc(Br)c1)C1CC(c2ccc(C(F)(F)F)cc2)=NO1 (stereo unspecified)
1%	COc1ccc2c(c1OC)C(=O)N(c1cccc(C)c1)C2
18%	C=CC[C@@H](Cc1ccc(F)cc1)C(=O)OC[C@H]1CCCN1C(=O)[C@@H](CC=C)CC(=O)N[C@@H](CO)Cc1ccccc1
20%	NC(=S)N/N=C\c1c(OCc2ccccc2Cl)ccc2ccccc12
13%	O=C(CCS(=O)(=O)c1cccs1)N1CCN(c2ccc(F)cc2)CC1
1%	CCOc1ccccc1C(=O)N1CCC(n2nnc3cc(C(F)(F)F)ccc32)CC1
-11%	COc1cccc(-c2nnc(SCC(=O)N3CCCC3=O)n2-c2ccccc2)c1
14%	CN1CCN(S(=O)(=O)c2cccc(S(=O)(=O)c3cccc(S(=O)(=O)N4CCN(C)CC4)c3)c2)CC1

VDR inh	smiles
-11%	Cc1cc(=O)n(Cc2cccc(F)c2)c2c1c(C)nn2-c1cccc(F)c1
5%	N#Cc1cc([N+](=O)[O-])c2sc(C(N)=O)[n+]([O-])c2c1
4%	COc1ccc(C(C(=O)NC2CCCCC2)N(C(=O)c2ccco2)c2ccc(-n3cnnn3)c(C)c2)cc1 (stereo unspecified)
-7%	CCOc1ccccc1NC(=O)Cn1nnc(C(=O)Nc2ccc(C)cc2)c1N
-3%	Cc1ccc(S(=O)(=O)NCc2cccnc2)cc1
-7%	CC(C)c1[nH]c(=O)c(C#N)c2c1CSC(C)(C)C2
?	CCN(CC)c1ccc(/C=C2\CCC(/C=C(/C#N)C(=O)Nc3ccccc3F)=C2N2CCOCC2)cc1
-16%	COC(=O)[C@]1(Cc2ccccc2)N[C@H](CN(C)C(C)=O)[C@@H]2C(=O)N(Cc3ccccc3)C(=O)[C@@H]21
-12%	COc1ccc(/C=C/c2c(-c3ccc(OC)cc3)oc(=O)c3cc(OC)c(OC)cc23)cc1
18%	O=C(OCc1nc2ccc(Cl)cc2n1CCO)c1ccc2c(c1)OCO2
8%	COc1ccc2c(c1OC)C(=O)N1C2SC(C)(C)[C@H]1C(=O)NCC(C)C (stereo partly specified)
9%	COc1ccc(C)cc1S(=O)(=O)NCC(c1cccs1)S(=O)(=O)c1ccc(C)cc1 (stereo unspecified)

# 3 entries from above, with bars between the fields:
mol | VDR inh
Fc1ccc(NCc2ccccc2-c2nnc(-c3ccccc3Cl)o2)cc1Cl | -10%
CC(=O)CC(=O)NC1CCc2ccccc21 (stereo unspecified) | -4%
Cc1cc2cc(CN(CCN3CCOCC3)C(=O)Nc3ccccc3F)c(=O)[nH]c2cc1C | 1%

# Next part:
VDR inh	smiles
-14%&3%	CCCN1CCN(CCCNC(=O)Cn2nc(C)n3c(cc4cc(F)ccc43)c2=O)CC1
-4%	CCOC(=O)[C@H]1[C@H]2COc3ccccc3[C@@H]2N2C(=O)CN(Cc3ccc(C)cc3)C(=O)[C@@]12C
10%	CCCCC(NC(=O)Cc1c(C)c2cc3c(-c4ccccc4)coc3c(C)c2oc1=O)C(=O)O (stereo unspecified)
1%	CC(=O)c1ccc(-c2[nH]c3ccccc3c2CCN2C(=O)c3ccccc3C2=O)cc1
0%	Cc1cc(NC(=O)Cn2nc(-c3ccccc3F)ccc2=O)ccc1-n1cnnn1
9%	CCOc1ccccc1CNC(=O)CSc1n[nH]c(-c2ccccc2Cl)n1
-6%	COc1cc(NC(=O)C2CCCN2C(=O)OCc2ccccc2)cc(OC)c1 (stereo unspecified)
-17%	Brc1ccc(CSc2ccc3nnc(-c4cccnc4)n3n2)cc1
8%	CC(=O)Nc1ccc(-c2csc(NC(=O)CN3C(=O)NC4(CCCC4)C3=O)n2)cc1
9%	Cc1ccc(C)c(-n2c(-c3ccncc3)n[nH]c2=S)c1
-5%	CC(=O)c1nnn(-c2cccc(C#N)c2)c1C
?	O=C(COc1ccccc1)Nc1nnc(-c2ccccc2Cl)o1

VDR inh	smiles
-4%	O=C(COC(=O)C1CCN(c2ccc(C(F)(F)F)cn2)CC1)NCCc1ccccc1
?	COC(=O)COc1cccc(NC(=O)c2ccc(Cl)cc2)c1
-14%	Cc1ccc(OCC(=O)NS(=O)(=O)c2ccccc2)cc1
-5%	COc1ccccc1CN(C)CC(=O)Nc1ccc(Cl)cc1F
18%	O=C(COc1ccc(/C=N/NC(=O)c2ccncc2)cc1)Nc1cccc([N+](=O)[O-])c1
-6%	O/N=C/c1cc(Br)cc(Br)c1OCc1ccccc1
-6%	O=C(Nc1nnc(-c2ccccc2F)s1)C1CCN(S(=O)(=O)c2ccc(Cl)cc2)CC1
1%	Cc1cccc(N2C(=O)CSC23C(=O)N(C)c2ccccc23)c1 (stereo unspecified)
-3%	COc1ccc(OC)c(Nc2cc(C(=O)NCCCN3CCOCC3)c3ccccc3n2)c1
5%	CCc1ccc(N=c2c([N+](=O)[O-])nn(-c3ccccc3)n2O)cc1
4%	O=c1c(-c2ccccc2)nc2cnc(N3CCOCC3)nc2n1Cc1ccc(F)cc1
1%	O=c1c(-c2ccc(Cl)cc2)nc2cnc(Oc3ccccc3)nc2n1C1CC1

VDR inh	smiles
-14%	Cc1cc(Cl)ccc1NC(=S)NCCC(c1ccccc1)c1ccccc1
30%[activator]	CCCCP(=O)(c1ccccn1)c1ccccn1
3%	O=C(COC(=O)c1cc(=O)c2ccccc2o1)Nc1ccccc1F
28%	COc1ccc(OC)c(C(=O)CSc2nnc(-c3cccnc3)n2C)c1
9%	O=C(NC1CCCc2ccccc21)C1CCCC1 (stereo unspecified)
5%	CCOC(=O)c1ccc(NC(=O)CSc2ncc(S(=O)(=O)c3ccc(C)c(Cl)c3)c(=O)[nH]2)cc1
-7%	Cc1ccc(-c2nn(-c3ccccc3)cc2C(=O)Nc2cccc(S(=O)(=O)N3CCOCC3)c2)cc1
10%	Cc1c(C)c2ccc(OCC(=O)N3CCC(C(=O)O)CC3)cc2oc1=O
19%	CC(C)(CNS(=O)(=O)c1ccc(Cl)cc1)N1CCCCC1
-28%	CCO[C@H]1OC(C(=O)O)=C[C@@H](c2cn(C(C)=O)c3ccccc23)[C@@H]1CCCO
-15%	O=C(NCC(c1ccco1)N1CCCC1)c1ccc(-n2cccn2)cc1 (stereo unspecified)
-11%	CCNC(=O)CC1SC(=Nc2cccc3ccccc23)N(C)C1=O (stereo unspecified)

VDR inh	smiles
5%	COCCNC(=O)CN(C(=O)Cn1nnc2ccccc21)c1cc(C)cc(C)c1
-4%	CCCNC(=O)c1ccc(N2CCC3(CC2)CC(c2ccccc2)=NO3)c([N+](=O)[O-])c1
-10%	CCN1CCN(c2c(S(=O)(=O)c3ccc(OC)cc3)cnc3cc(OC)c(OC)cc23)CC1
-8%	C#CCNCCS(=O)(=O)N(Cc1ccc(Br)cc1)[C@@H](C)C(=O)O
1%	Cc1ccc(C)c(CN2C(=O)NC3(CCCCCC3)C2=O)c1
12%	CC/C(C)=N/NS(=O)(=O)c1ccc(C)c([N+](=O)[O-])c1

# Not all compounds are listed; rates above refer to the full screens.
